Screening data from PubChem.
OX1R antag-1: blocks the human orexin 1 receptor; inhibition, % at 5 µM; AID 434989; 330,000 tested, 0.43% active; O43613; CHO/OX1R cells, Fluo-8 calcium fluorescence, orexin A;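 active = inhibition above its plate's threshold, mean inhibition of all tested compounds on the plate plus 3 SD, cut at about 37% in these data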;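 also: 0% = orexin A challenge wells and 100% = SB-334867-A antagonist wells; not every result past the cut was called active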
Target sequence (O43613 whole entry, looked up): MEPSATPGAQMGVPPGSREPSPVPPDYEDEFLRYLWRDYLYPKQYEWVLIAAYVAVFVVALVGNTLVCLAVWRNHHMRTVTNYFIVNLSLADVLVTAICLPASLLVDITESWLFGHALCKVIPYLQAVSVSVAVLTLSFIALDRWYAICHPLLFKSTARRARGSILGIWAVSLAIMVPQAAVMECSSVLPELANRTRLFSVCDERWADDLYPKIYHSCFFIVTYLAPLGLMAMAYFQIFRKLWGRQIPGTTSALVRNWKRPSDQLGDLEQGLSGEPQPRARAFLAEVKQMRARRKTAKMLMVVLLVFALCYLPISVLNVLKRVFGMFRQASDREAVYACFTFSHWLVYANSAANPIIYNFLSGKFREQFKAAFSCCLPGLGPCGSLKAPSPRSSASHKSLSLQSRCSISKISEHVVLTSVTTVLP
OX1R antag-2: blocks the human orexin 1 receptor | OX1R-expressing cells, FRET antagonist read-out | inhibition, % at 6.6 µM | 330,000 tested, 1.8% active | AID 485270; in the data active = inhibition mostly above about 38%, no sharp cut-off; inactive = mostly below about 40%;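 also: 0% = agonist challenge alone and 100% = reference antagonist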
* marks the source's active call; other numbers are inactive results.

SMILES	OX1R antag-1	OX1R antag-2
COc1ccccc1OCCNC(=O)c1ccc(C)c(S(=O)(=O)N2CCOCC2)c1	-17.4	12.4
CCOC(=O)CNC(=O)CSc1nnc(Cn2c(=O)sc3ccccc32)n1-c1ccccc1C	-10.1	21.7
CC1(O)c2ccccc2C(=O)N1Cc1ccccc1 (stereo not drawn)	-9.0	16.6
COc1ccc(S(=O)(=O)N2CCN(C)CC2)cc1NC(=O)c1ccccc1	-35.6	9.8
c1coc(Cn2c(SCc3nc4ccccc4[nH]3)nnc2-c2cnccn2)c1	-30.9	26.5
O=S(=O)(c1ccc(Cl)nc1)N1CCCC1	-4.5	2.8
O=C(Nc1ccccc1Cl)N(Cc1nc2ccccc2c(=O)[nH]1)Cc1cccs1	-25.8	10.2
CC(C)CCNC(=O)NC(=O)COC(=O)/C=C/c1cnc2ccccc2n1	-18.6	12.6
C=CCn1c(SCC(=O)Nc2cccc3ccccc23)nc(O)c(CC)c1=O	-31.8	6.1
O=C(Nc1ccc(OC(F)(F)F)cc1)c1[nH]ncc1[N+](=O)[O-]	5.6	1.9
CCOC(=O)c1c(N)sc(C(C)=O)c1C	-6.4	33.4
Clc1ccc(C2=Nn3c(nnc3-c3n[nH]c4c3CCC4)SC2)cc1	-21.5	14.2
O=C(Nc1ccc(O)cc1C(=O)O)c1cccc(Br)c1	-0.3	6.8
COCCn1c(SCC(=O)N2CCCC2)nnc1-c1ccoc1C	-16.3	14.7
COc1cc2c(cc1OC)C(CC(=O)O)N(C(=O)CC1CCCC1)CC2 (stereo not drawn)	-5.0	8.6
CC(C)[C@H](NC(=O)c1ccccc1Cl)C(=O)NC1CCCCCC1	-24.8	24.4
COc1ccc(CNC(=O)Cc2c[nH]c3ccccc23)cc1OC	-5.7	-2.2
COc1ccc(N2C(=O)C3C4c5ccccc5C(C=Nc5ccc(C)cc5C)(c5ccccc54)C3C2=O)cc1 (stereo not drawn)	-16.4	24.5
CCOc1ccc(C2c3[nH]c4ccccc4c3CCN2Cc2cn(CC)nc2C)cc1 (stereo not drawn)	-17.7	41.2
c1ccc2c(c1)ncn2CCOCCOCCn1cnc2ccccc21	-30.2	11.6
CCCNC(=O)CSc1nnc(-c2ccc(F)cc2)o1	-15.4	5.0
CCCc1ncc(C(O)c2cccc(OC)c2OC)n1C (stereo not drawn)	-4.3	5.0
CC(c1ccccc1)n1c(SCC(=O)N2CC(=O)Nc3ccccc32)nc2ccccc2c1=O (stereo not drawn)	-15.2	10.6
COCCn1cc(-c2csc(N)n2)c2ccccc21	-6.0	1.1

5 records picked at random from those above:
SMILES	OX1R antag-1	OX1R antag-2
CCCc1ncc(C(O)c2cccc(OC)c2OC)n1C (stereo not drawn)	-4.3	5.0
COc1cc2c(cc1OC)C(CC(=O)O)N(C(=O)CC1CCCC1)CC2 (stereo not drawn)	-5.0	8.6
CCOC(=O)c1c(N)sc(C(C)=O)c1C	-6.4	33.4
COCCn1cc(-c2csc(N)n2)c2ccccc21	-6.0	1.1
CCCNC(=O)CSc1nnc(-c2ccc(F)cc2)o1	-15.4	5.0

Remaining list, next part
SMILES	OX1R antag-1	OX1R antag-2
Cc1cccc(C(=O)N2CCCN(C(=O)c3cccc(C)c3)CC2)c1	-4.8	19.0
CN(C(=O)COC(=O)c1cc2c(s1)CCCCC2)c1ccccc1	-29.4	2.2
O=C(O)c1cccc(COCC(F)(F)C(F)F)c1	-3.2	5.3
CCOC(=O)C1=C(COC(=O)[C@H](C)NS(=O)(=O)c2ccccc2F)NC(=O)NC1C (stereo partly drawn)	1.2	-3.0
CCc1nc(SCC#N)c(C#N)cc1C	7.7	1.3
COCC(C)n1c(C)cc(C(=O)CSc2nnc(N)s2)c1C (stereo not drawn)	-24.0	20.8
C=CCn1cnc2c(nnn2-c2ccc(OC)c(OC)c2)c1=O	-8.2	16.1
CCCCC(=O)NC(=S)Nc1cccc(C(=O)O)c1	-11.8	17.3
O=C(CSc1ncc(-c2ccccc2)[nH]1)Nc1ccccc1F	-1.3	7.6
CCSc1cc(C2C(C(=O)OC)=C(C)NC3=C2C(=O)CCC3)c(C)o1 (stereo not drawn)	-18.9	8.0
CCS(=O)(=O)NCCc1csc(-c2ccc(OC)c(OC)c2)n1	-1.6	12.0
CCc1ccccc1NC(=S)N(Cc1ccco1)C(C)c1cccs1 (stereo not drawn)	-25.5	5.0
COc1ccccc1N(CC(=O)NCc1ccc(F)cc1)C(=O)CCC(=O)Nc1nccs1	-32.4	18.5
c1ccc(-c2ccc3[nH]ccc3c2)cc1	-5.1	9.8
O=C(CNC(=O)c1ccc(Br)o1)NNC(=O)c1ccc(Br)cc1	-13.1	8.5
CCOC(=O)N1CCC(C(=O)Nc2ccc(OCC)cc2)CC1	-4.2	-1.1
CC1CCCC(C)N1CCCNC(=O)Cn1cc2c(n1)CCCC2 (stereo not drawn)	0.0	11.5
CCOc1ccc2nc(SCC(=O)c3cccs3)sc2c1	-15.8	23.5
Cn1c(=O)c(NC(=O)c2ccccc2)c2n(c1=S)CCCCC2	-36.1	8.2
CCCc1nc(N)c(C#N)c(-c2cccnc2)c1CC	-8.6	15.3
CCc1ccccc1NC(=O)c1nnn(CC(=O)Nc2cccc(C)c2C)c1N	-2.5	11.7
COc1ccc(S(=O)(=O)N(Cc2ccccc2)c2ccccc2C(=O)O)cc1	-23.3	-10.3
COc1ccc(N2CCN(C(=O)/C(C#N)=C/c3ccccc3)CC2)cc1	-16.6	15.6
Cc1ccc(N2C(=S)N=C(Nc3ccccc3C)C23CCOC(C)(C)C3)cc1 (stereo not drawn)	-22.6	7.2
Cc1ccc(C(=O)N/C(=C\c2ccc(F)cc2)C(=O)NCCN2CCOCC2)cc1	-5.0	3.3
Cc1ccc(C)c(N(CC(=O)NCc2ccco2)C(=O)CNS(=O)(=O)c2ccccc2)c1	-16.6	17.2
COC(=O)c1cc(-c2ccc(S(=O)(=O)N3CCCC3)cc2)c(C(F)(F)F)s1	-26.5	6.5
COC(=O)c1ccc(C(=O)OC)c(NC(=O)CCS(=O)(=O)Cc2ccccc2)c1	-14.7	10.4
N/C(=N\S(=O)(=O)c1ccccc1)c1ccc([N+](=O)[O-])cc1	-1.8	45.5
C=CCn1c2ccccc2c2nnc(SCC(=O)OCN3C(=O)c4ccccc4C3=O)nc21	-0.1	34.5
CCOC(=O)c1ccc(NC(C)=O)c([N+](=O)[O-])c1	2.9	39.6
CC1=C(C)CC(C(=O)Nc2nc(C)cs2)C(C(=O)O)C1 (stereo not drawn)	-10.1	4.2
O=C(CCNS(=O)(=O)c1ccc(Cl)cc1)NCc1cccs1	-16.8	6.6
Cc1c(Cl)cccc1NC(=S)NCc1cccs1	-20.5	26.9
O=C(O)c1ccc(NC(=S)NC(=O)c2ccc(-c3ccccc3)cc2)cc1	-1.4	-0.5
COc1ccc(CN(CC(=O)NCc2ccco2)C(=O)CCC(=O)Nc2nccs2)cc1	-6.7	3.2

Profiles, looked up by structure.
C=CCn1c2ccccc2c2nnc(SCC(=O)OCN3C(=O)c4ccccc4C3=O)nc21 is entered as OX1R antag-1: -0.1; OX1R antag-2: 34.5
CC1=C(C)CC(C(=O)Nc2nc(C)cs2)C(C(=O)O)C1 (stereo not drawn) is entered as OX1R antag-1: -10.1; OX1R antag-2: 4.2

The list goes on.
SMILES	OX1R antag-1	OX1R antag-2
OCCNc1nc(Nc2ccccc2Oc2ccccc2)nc(N2CCCC2)n1	-25.2	21.4
CC(O)c1cccc(NC(=O)CCC(=O)O)c1 (stereo not drawn)	-4.0	2.8
CCc1cccc(CC)c1NC(=O)CSc1nc2ccc(N3C(=O)C4C(C3=O)[C@H]3C=C[C@@H]4C3)cc2s1 (stereo partly drawn)	-25.0	27.7
COc1ccc2cc(OC)c(C(=O)N3CCOCC3)cc2c1	-12.0	8.4
O=C(COc1ccc(F)cc1Br)N1CCN(c2ncccn2)CC1	-15.7	19.3
CN(C(=O)COc1ccccc1)c1nc(-c2ccc(F)cc2)cs1	-3.6	33.4
Cc1cc(NC(C)C)n2c(nc3ccccc32)c1C#N	-10.2	7.6
C[C@@H]1C=C(C(=O)NCc2nc3ccccc3[nH]2)O[C@H](OCCCCO)C1	-10.3	2.4
O=C(NCc1ccc2c(c1)OCO2)c1ccccn1	-2.0	20.5
Cc1cc(C)nc(Nc2ncc(O)n2-c2ccccc2)n1	10.8	7.7
CC(C)c1csc(CN2CCCC(CCC(=O)NCc3ccccc3F)C2)n1 (stereo not drawn)	-24.2	7.6
Cc1ccc2c(CC(=O)OCc3cc(=O)n4c(n3)sc3ccccc34)coc2c1	-6.0	26.7
Cc1ccc(NC(=S)NCc2ccc3c(c2)cc(C)n3C)c(C)c1	-20.8	12.8
CCN(CC)C(=O)CSc1nc2cccnc2n1-c1ccccc1OC	-43.1	10.5
O=C(NCCOc1nc(N2CCCCC2)nc(N2CCCCC2)n1)Nc1ccccc1	-3.4	17.1
CCc1ccccc1NC(=O)CN(C)C(=O)Cn1ncc(Cl)c(Cl)c1=O	5.4	16.4
Cc1nc(N2CCCC2)c2ccsc2n1	-27.2	17.0
COc1ccc(S(=O)(=O)Oc2ccc(C(=S)N3CCOCC3)cc2OC)cc1	-9.4	5.5
O=C(CCCl)Nc1cc(SCCO)cc([N+](=O)[O-])c1	5.7	28.4
CCCCN(C)S(=O)(=O)c1ccc(C(=O)Nc2nnc(C3=COCCO3)o2)cc1	6.9	6.9
CC(=O)NCCc1nc2ccccc2[nH]1	-12.4	5.7
COc1ccc(C(C(=O)NC(C)(C)C)N(C(=O)CNC(=O)c2cccs2)c2cccnc2)cc1OC (stereo not drawn)	-19.9	10.8
CCOc1ccc(NC(=O)C2CCCN(S(=O)(=O)c3c(C)nn(C)c3C)C2)cc1 (stereo not drawn)	-34.9	8.2
Cc1cccc(N(C(=O)CNC(=O)c2cccs2)C(C(=O)NC2CCCC2)c2cccnc2)c1 (stereo not drawn)	-31.3	5.4
Cc1ccc(NC(=O)CN2CCc3cc4c(cc3C2)OCCCO4)cc1	-20.6	5.6
CCN(CCCNC(=O)CN(C)S(=O)(=O)c1cccc2nsnc12)c1ccccc1	-26.0	33.8
Cc1ccc(C(=O)N2CCCC2)cc1Br	2.7	14.4
COc1ccccc1OCc1cc(C(=O)N2CC3C[C@@H]4CC2C[C@H](C3)C4)no1	-18.4	4.8
Cc1nc(N)nc(N/N=C/c2c(F)cccc2Cl)n1	-8.4	-4.8
COc1ccc(OCCOC(=O)c2nc3nccc(C)n3n2)cc1	-2.8	2.5
Cc1ccc(C)c(N2CCN(C(=O)c3ccc(Cl)c(NC4=NC5CS(=O)(=O)CC5S4)c3)CC2)c1 (stereo not drawn)	-38.1	2.2
CC(C)c1c(Cl)c(O)c(-c2ccccc2)c(=O)n1-c1ccc(F)cc1	-6.4	14.7
COc1cc(NC(=S)NC(=O)c2cc(C)cc(C)c2)ccc1NC(=O)c1cccs1	-28.0	9.2
COCCCNS(=O)(=O)c1ccc(Oc2ncc(C(F)(F)F)cc2Cl)cc1	-4.8	7.8
COc1ccc(SC[C@H](Cc2ccccc2)N2CC[C@@H](NC(=O)OCc3ccccc3)CCC2=O)cc1	2.3	8.6
Cc1ccc(-n2c(N)c(C#N)c(-c3ccccc3)c(C#N)c2=O)cc1	-6.3	27.5
CCOc1ccccc1NC(=O)Nc1ccc(Br)cn1	-6.4	3.1
CC(C)C(=O)Nc1ccc(N2CCN(S(C)(=O)=O)CC2)cc1	-2.1	22.8
CN(C(=O)c1ccc(N2CCCCC2)c([N+](=O)[O-])c1)C1CCS(=O)(=O)C1 (stereo not drawn)	7.7	31.3
O=C(CC1C=Cc2ccccc2N1C(=O)c1ccccc1)c1ccccc1 (stereo not drawn)	3.1	8.7
CCCC12CN3CCN(CC(C3)/C1=N\NC(=O)Nc1ccccc1)C2	-20.3	11.8
O=C(Nc1nnc(CCN2CCCCC2)s1)c1ccc(Cl)cc1Cl	-28.2	5.2
N#Cc1cn(-c2ccccc2)nc1-c1ccccc1	-34.4	11.4
COCCN(C(=O)CCC(=O)Nc1ccccn1)C(C(=O)NC1CCCC1)c1ccc(OC)cc1 (stereo not drawn)	-18.9	24.3
Cc1c(N=Cc2ccncc2)c(=O)n(-c2ccccc2)n1C	-9.1	10.6
Cc1csc(NC(=O)CSc2nnc(-c3ccoc3C)n2Cc2ccco2)n1	-17.0	13.5
CCN(CC)S(=O)(=O)c1ccc(NC2c3ccccc3C(=O)N2c2ccc(C)cn2)cc1 (stereo not drawn)	-30.4	-2.3
COc1nc2ccccc2nc1OC	-11.4	5.0
Cc1occc1C(=O)N1CCN(c2ncccn2)CC1	-7.5	11.2
CCCc1cc2c(=O)c(-c3ccc4c(c3)OCCO4)coc2cc1OC(=O)c1ccco1	-8.4	11.6
O=C(OCn1nnc2ccccc2c1=O)c1cccnc1Cl	-5.6	4.0
CC(C)C1OC2(C)OC(=N)C1(C#N)C(C#N)(C#N)C2c1ccccc1 (stereo not drawn)	9.1	26.2
Cc1ccccc1N1C(=O)C2CCCN2C1=S (stereo not drawn)	-11.5	-0.3
NS(=O)(=O)c1ccc(NC(=O)COC(=O)CCc2ccccc2)cc1	0.7	22.5
COc1ccccc1NC(=O)C(=O)Nc1ccccn1	-25.9	3.8
Cc1ccccc1Nc1nc(-c2sc(NC(=O)c3cccc(Cl)c3)nc2C)cs1	1.9	8.5
O=C(NNC(=O)c1cccs1)c1ccc([N+](=O)[O-])cc1	-12.1	43.2
CCC(CC)=C(C#N)C(=O)NC1CCCCC1	-1.8	16.1
Cc1ccc(S(=O)(=O)N2CCOCC2)cc1C(=O)NC(=S)N1CC(C)OC(C)C1 (stereo not drawn)	-16.2	13.3
Cn1ccnc1C(O)(c1ccccc1)c1nccn1C	-1.9	12.3
(cont.)
SMILES	OX1R antag-1	OX1R antag-2
CCCCN(Cc1cc2ccccc2[nH]c1=O)C(=O)c1ccccn1	-18.3	11.1
Cc1cc(C)c2[nH]c(=O)c(C(c3nnnn3CC3CCCO3)N3CCCC(C)C3)cc2c1 (stereo not drawn)	-24.2	8.9
Cc1ccc(CONC(=O)c2ccc(Cl)cc2)cc1	-14.3	13.5
CCCCC1=NN2CCS(=O)(=O)N=C2S1	-21.0	8.0

These rows are one share of the data, and most or all hits are left out here.
